Screens from PubChem.
NPYLR7 agonist – activates Aedes aegypti NPYLR7 receptor; HEK293T NPYLR7/Galpha15, GCaMP6s calcium fluorescence; activation, % at 10 µM; 270,000 tested, 0.15% active; AID 1259423; in the data active means activation above about 40%;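 further: 0% = vehicle and 100% = reference agonist at the receptor; some compounds past the cut are filed as inactive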
NPYLR7 agonist max-min – second read-out of NPYLR7 agonist, no call of its own (marks repeat the call); activation, %; measured here: Max-Min RFU normalised activation; some inactives read as strong as hits;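 span of the calcium signal over five minutes; 0% = vehicle and 100% = native peptide agonist; compound fluorescence can raise it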
* hit, by the source's call; & = joins results of further samples.

SMILES | NPYLR7 agonist | NPYLR7 agonist max-min
CCC(CC)NCCCN1CCCC(O)C1 (configuration not stated) | 1 | 5
COc1ccc(/C=c2\sc3nc(/C=C/c4ccc(C)cc4)nn3c2=O)c(OC)c1 | -2 | 3
CCn1c(SCc2ccc(C(=O)NC3CC3)cc2)nnc1-c1ccccc1[N+](=O)[O-] | -1 | 8
COc1cccc(Cc2nsc(N(CCC(=O)N3CCC(n4c(=O)[nH]c5ccccc54)CC3)Cc3ccco3)n2)c1 | -16 | -10
CN(C)c1ccc(/C=C2\SC(=S)N(NC(=O)c3ccccc3O)C2=O)cc1 | -21 | -26
CN(C)CCN(CC1CCCN(Cc2ccccc2F)C1)C(=O)c1cccc2nccnc12 (configuration not stated) | 8 | 0
CN1CCc2c(OCC(=O)NC3CCCCC3)cccc2C1=O | 6 | 5
CCOC(=O)N1CCN(C(=O)c2cnn(-c3ccc(Cl)cc3)c2C)CC1 | 1 | 0
CN(CCc1ccccc1)C1CCCN(Cc2cccs2)C1 (configuration not stated) | 11 | -1
CCN(CCn1cccn1)C(=O)CCCn1nnnc1CN1CCC(C)CC1 | 6 | 5

A different layout for part of the listing above:
Values run as follows: NPYLR7 agonist	NPYLR7 agonist max-min
CCn1c(SCc2ccc(C(=O)NC3CC3)cc2)nnc1-c1ccccc1[N+](=O)[O-]
→ -1	8
COc1cccc(Cc2nsc(N(CCC(=O)N3CCC(n4c(=O)[nH]c5ccccc54)CC3)Cc3ccco3)n2)c1
→ -16	-10
CN(C)c1ccc(/C=C2\SC(=S)N(NC(=O)c3ccccc3O)C2=O)cc1
→ -21	-26
CN(C)CCN(CC1CCCN(Cc2ccccc2F)C1)C(=O)c1cccc2nccnc12 (configuration not stated)
→ 8	0
CN1CCc2c(OCC(=O)NC3CCCCC3)cccc2C1=O
→ 6	5

Back to the main list, starting 2 compounds before the break.
SMILES | NPYLR7 agonist | NPYLR7 agonist max-min
CN(CCc1ccccc1)C1CCCN(Cc2cccs2)C1 (configuration not stated) | 11 | -1
CCN(CCn1cccn1)C(=O)CCCn1nnnc1CN1CCC(C)CC1 | 6 | 5
O=C(N[C@H]1C[C@H]2C(=O)NCC(=O)N2C1)c1cncc(Cl)c1 | -6 | -8
Cc1ccc(N2C(=O)CC(N3CCc4ccccc4C3)C2=O)cc1 (configuration not stated) | -6 | -12
CC(=O)N1CCN(C(=O)c2csc(COc3cc(Cl)ccc3Cl)n2)CC1 | -2 | -12
O=C(CN1CN(c2ccccc2)C2(CCN(C(=O)c3ccc([N+](=O)[O-])cc3)CC2)C1=O)NC1CCCCC1 | 8 | 8
CC1CCCCN1CCCNC(=O)CC(c1cccc(C(F)(F)F)c1)c1c[nH]c2ccccc12 (configuration not stated) | 6 | 18
Brc1cc2c(cc1CSc1nnc(-c3ccco3)o1)OCO2 | 7 | 11
CCCN(Cc1nccn1C)C(=O)CSc1nnc(C)s1 | -2 | -7
Cn1c(=O)n(CC(=O)NC2CC2c2cccc(F)c2)c2ccccc21 (configuration not stated) | 2 | 0
CNC(=O)c1cccc(C(=O)N2CCSC3(CCCCC3)C2)c1 | -21 | -22
CC(=O)C1=C(C)NC(=O)NC1c1cc2ccc(C)cc2[nH]c1=O (configuration not stated) | 0 | -2
O=C(O)CN1C(=O)C(Oc2ccccc2)C1c1cccnc1 (configuration not stated) | 11 | 4
C=CCn1c(SCC(=O)NCCCN2CCOCC2)nnc1-c1sc2ccccc2c1Cl | -3 | -3
O=C(CNC(=O)c1cccc(Br)c1)Nc1nc2c(s1)CCCC2 | 4 | 3
Oc1c(C(Nc2ccccn2)c2ccccc2F)ccc2cccnc12 (configuration not stated) | 2 | 1
CS(=O)(=O)Nc1ccc(NS(C)(=O)=O)cc1 | 3 | 5
O=C(NC1CCN(Cc2ccccc2)CC1)c1cc2n(n1)CCN(Cc1ccccc1)C2=O | 20 | 25
O=C(Nc1nc(OCC(F)(F)F)cnc1/C=C\c1ccccc1)c1ccsc1 | -23 | -24
Cc1ccc(Cn2nc(C)c(/C=C/C(=O)N3CCCCCC3)c2Cl)cc1 | 0 | 0
NC(=O)CSc1nc(N)cc(=O)[nH]1 | 2 | 6
COc1ccc2c(c1)CC(CNC(=O)CCCCCl)O2 (configuration not stated) | 14 | 28
Cc1cc(NC(=O)CN2CSCC2=O)n(-c2cc(C(F)(F)F)ccc2Cl)n1 | 2 | -10
Nc1ccc(CCc2nc3cc(N)ccc3o2)cc1 | -1 | -3
COc1ccc(O[C@@H]2C=C(C(=O)N[C@@H](Cc3ccc(O)cc3)C(N)=O)C[C@@H](O)[C@H]2O)cc1 | -8 | -15
COc1ccc(F)cc1C(=O)N1CC(c2ccncc2)C1 | 2 | 2
COC(=O)C(C(=O)O)=C1SC2=C(SCCS2)S1 | 6 | 8
CC1CCCN(S(=O)(=O)c2ccc3c(c2)nc(SCc2ccc(OC(F)F)cc2)n3C2CCCC2)C1 (configuration not stated) | 17 | 8
O=S(=O)(c1cccc(F)c1)N1CCC(CCc2ccccc2)CC1 | 2 | 13
COCCCn1ccc2c(cnc3ncnn32)c1=O | 2 | 5
C=CCn1c(=NC(=O)c2ccccc2S(C)(=O)=O)sc2cc(Cl)ccc21 | 2 | -1
CC(C)c1ccc(S(=O)(=O)NC2CCS(=O)(=O)C2)cc1 (configuration not stated) | -2 | -3
O=C(c1ccc(C(F)(F)F)cc1)N1CCCC(OCc2cccc(Cl)c2)C1 (configuration not stated) | -2 | 0
Cc1ccc(NC(=O)N2CCSC2c2cccc(Oc3ccccc3)c2)cc1Cl (configuration not stated) | -8 | 2
Cc1cccnc1NC(=O)COc1ccc(F)cc1Br | 2 | 2
O=C(COc1cc(Cl)cc(Cl)c1)Nc1ccccc1N1CCCC1=O | 1 | 3
COc1ccccc1C1(CC#N)CCOC(C)(C)C1 (configuration not stated) | 0 | -1
Cc1cc(C)n(-c2ccc(C(=O)NCc3ccccn3)cc2)n1 | -6 | -11
Cc1ncc2c(c1CNC(=O)c1ccoc1C)CCN(C(=O)/C=C/C(C)C)C2 | 17 | 1
CCN(Cc1ccc2c(C)cc(=O)oc2c1)CC1CCOCC1 | -3 | -6
CCCC(=O)N1CCC1(C)C(=O)NS(=O)(=O)c1cccc(C#N)c1 (configuration not stated) | 4 | 4
COCCN(Cc1nc(-c2cnccn2)no1)C(C)C | 6&3 | 3&-3
CN1C(=O)NC(c2ccsc2)C2=C1CN(Cc1ccco1)C2=O (configuration not stated) | 27 | 22
CCOC(=NC1CC1)NC(=O)c1ccc2c(c1)OCO2 | -14 | -8
Cc1cc(C)[n+]2c3c(sc2n1)CCCC3 | -8 | -19
Fc1ccccc1C#Cc1ccnc2ccccc12 | 36 | 19
CC(NC(=O)c1ccc(-c2ccc(Br)cc2)s1)C(=O)N(C)C (configuration not stated) | -8 | -9
CCCSc1ncccc1C(=O)N(C)C(c1ccccc1)c1ccccc1 | -10 | -16
COc1ccc(S(=O)(=O)Nc2nc(CCC(=O)NCCC3=CCCCC3)cs2)cc1 | 4 | 4
C#CCN(C)CC1=Cc2ccccc2Oc2ccccc21 | -8 | -12
CCOC(=O)c1cccc(NC(=O)CC2c3cccnc3C(=O)N2c2ccccc2)c1 (configuration not stated) | 2 | 3
CC1Oc2ccc(C#N)cc2N(Cc2ccc(Cl)cc2)C1=O (configuration not stated) | 2 | -1
New compounds follow
SMILES | NPYLR7 agonist | NPYLR7 agonist max-min
CCN(CC)Cn1c(O)c(N=NC(=O)c2ccc(OC)c(OC)c2)c2ccccc21 | 0 | -5
COc1ccc(NC(=O)Cc2ccc(C)nc2)cc1Br | 1 | 0
Cc1nc2cc(C(=O)NC(C)c3cnn(-c4ccccn4)c3C)ccc2s1 (configuration not stated) | 7 | 1
COc1ccc(-c2noc(-c3cccn(CC(=O)Nc4cc(C)ccc4C)c3=O)n2)cc1OC | 0 | -2
Cc1ccc(NC2(C(=O)NC(C)c3nncn3C)CCCCC2)cc1C (configuration not stated) | 0 | 1
CCOc1ccc(N(CC(=O)Nc2ccc(F)c(Cl)c2)S(=O)(=O)c2ccc(SC)cc2)cc1 | 11 | 8
Cc1cc(-c2nnc(NC(=O)Cc3ccc(C(C)C)cc3)o2)nn1C | -5 | -7
Cc1cccc(CSc2nc(=O)n3cc(C)ccc3n2)c1 | 1 | 1
O=C(NCc1cccc2ccccc12)NCc1nnnn1-c1ccc(Cl)cc1 | 0 | -1
CC1(c2ccccc2)NC(=O)N(CC(=O)c2ccc3c(c2)OCCO3)C1=O (configuration not stated) | 12 | 3
O=CNCCc1nc2ccccc2n1Cc1ccccc1 | 6 | 13
C=CCN1CCN(c2ccc(Cl)cc2)C(=O)C1C (configuration not stated) | 0 | 12
C=CCn1c(SCC(C)=O)nc2scc(-c3ccc(C)o3)c2c1=O | -5 | -7
COC(=O)c1ccc(C(=O)N2CCCC(Nc3ccc(C(C)C)cc3)C2)cc1 (configuration not stated) | -6 | -5
Cn1nc(C(F)(F)F)c2cc(C(=O)N3CC[C@H](O)[C@@H](O)C3)sc21 | 11 | 9
CS(=O)(=O)Oc1cccc(CN(Cc2ccco2)C(=O)c2cccc(F)c2)c1 | 25 | 21
CCN1CCN(S(=O)(=O)c2ccc(OC)c(N3CCN(S(=O)(=O)c4cc(Cl)c(Cl)cc4Cl)CC3)c2)CC1 | 17 | 6
O=C(NCc1cccc(C(F)(F)F)c1)c1ccccc1N1CCC(NS(=O)(=O)c2ccc(F)cc2)CC1 | 1 | 6
CC(C)Cc1cc(C(=O)NC(C)c2cn3ccsc3n2)n(C)n1 (configuration not stated) | 13 | 10
CCOC(=NCc1ccc2c(c1)OCO2)NC(=O)c1ccccc1F | 14 | 24

Entries of single compounds, quoted from the list.
Results for CC(C)Cc1cc(C(=O)NC(C)c2cn3ccsc3n2)n(C)n1 (configuration not stated) → NPYLR7 agonist = 13; NPYLR7 agonist max-min = 10
Results for CCOC(=NCc1ccc2c(c1)OCO2)NC(=O)c1ccccc1F → NPYLR7 agonist = 14; NPYLR7 agonist max-min = 24
Results for CCN1CCN(S(=O)(=O)c2ccc(OC)c(N3CCN(S(=O)(=O)c4cc(Cl)c(Cl)cc4Cl)CC3)c2)CC1 → NPYLR7 agonist = 17; NPYLR7 agonist max-min = 6

The listing continues.
SMILES | NPYLR7 agonist | NPYLR7 agonist max-min
COc1ccc(-c2cc(N)n(-c3ccc(C(=O)NC4CCCCC4)cc3)n2)cc1 | -8 | -11
CCCC1=NN(C(C)=O)C(C(=O)N(C)CCNC(=O)C(F)(F)F)O1 (configuration not stated) | 13 | 8
Cc1nn2c(NCCN(C)C)cc(C(C)(C)C)nc2c1-c1ccc(Cl)cc1 | 0 | 0
COC1(c2ccccc2)CCN(Cc2cc3n(n2)CCCNC3)CC1 | -4 | -12
N#CC(=Cc1c(-c2ccccc2)nc2sccn12)c1nc2ccccc2s1 | 8 | 5
CN(C)c1ccc(C=C2CCC(C3=CCCC3)=C2N2CCOCC2)cc1 | 21 | 20
O=C(CCN1C(=O)NC2(CCCC2)C1=O)N1CCOCC1 | 0 | 4
COc1ccc(N2CCN(C(=O)CCN3CCc4sccc4C3C)CC2)cc1 (configuration not stated) | 7 | 6
CCn1c(CC2CCN(C(=O)c3n[nH]c4c3CCC4)CC2)nn(C)c1=O | 16 | 10
Cc1cc(C)c2c(-c3oc4ccccc4c3NC(=O)C3CC3)cc(=O)oc2c1 | 1 | 0
CCS(=O)(=O)c1ccc(CC(=O)Nc2nnc(-c3cc(C)n(C)n3)o2)cc1 | -8 | -14
CC(C)C(NS(=O)(=O)CCCCC#N)c1ccc(Cl)cc1 (configuration not stated) | -15 | -15
Fc1ccc(NC(=S)N2CCc3[nH]cnc3C2c2ccc(F)cc2)cc1 (configuration not stated) | 3 | 38
Cc1cc(OCc2cc(C(=O)NC(C)c3cnn(C)c3)no2)cc(C)c1Cl (configuration not stated) | -6 | -6

An excerpt. The share of hits here may be higher or lower than overall.
